BmaI1 enzyme: BmaI1 acyl-homoserine lactone synthase inhibition – biochemical, fluorescence intensity, with counterscreen (AID 720554) | 12,000 compounds, 0.4% hits | BmaI1 enzyme assay, fluorescence intensity; stronger effect = higher value; test concentration not given here; a few actives read low; strong numbers were not always called active | inhibition, %;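 active = both replicates within 2 robust z-scores of the inhibited control and a quiet counterscreen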;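 note: 0% = uninhibited enzyme and 100% = inhibited control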
BmaI1 enzyme counterscreen: further read-out of BmaI1 enzyme, marked with its call; inhibition, %; measured here: counterscreen; design of the counterscreen not given here;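 first of two replicates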
* marks the source's active call; other numbers are inactive results. Only part of the results is shown. The share of hits here may be higher or lower than overall.

SMILES | BmaI1 enzyme | BmaI1 enzyme counterscreen
CCN(CC)C(=O)c1ccc(NC(=O)Nc2ccccc2F)cc1 | 0 | 4
CCC(CC(=O)NCc1ccc(Cl)cc1Cl)n1ccnc1 (configuration not stated) | 10 | 17
CCN1CCCC1CNC(=O)c1ccccc1Oc1ccccc1 (configuration not stated) | 10 | 6
Cc1ccccc1-c1nnc(SC(C)C)o1 | 5 | 2
O=C1OCCC1Sc1nc2ccccc2[nH]1 (configuration not stated) | 5 | 8
CN(C)C(=O)COC(=O)c1ccc(-c2ccc(C(=O)OCC(=O)N(C)C)s2)s1 | 4 | 0
N#CCCn1cc(C(=O)CSc2nnc(-c3ccccc3Cl)n2C2CCCC2)c2ccccc21 | 15 | 3
Cc1ccc(NC(=O)CN(C)C(=O)CSc2nc(C)cs2)cc1 | 7 | 3
CCCn1c2c(c(=O)[nH]c1=O)C(=O)C(C)N2 (configuration not stated) | 10 | 4
O=C(COc1ncnc2sccc12)N1CCCCC1 | 8 | 19
CC1CC(C)CN(C(=O)COC(=O)c2ccc(Cl)cc2)C1 (configuration not stated) | 1 | -2
CCC1(C)NC(=O)N(/N=C/c2cccs2)C1=O (configuration not stated) | 22 | 19
COc1cc(-c2nnc(COC(=O)c3ccc(-n4nc(C)cc4C)cc3)o2)cc(OC)c1OC | 17 | 2
COc1ccc(NC(=O)c2ccccn2)cc1OC | 15 | 3
COC(=O)CC1c2cc(OC)c(OC)cc2CCN1C(=O)c1cccc(C#N)c1 (configuration not stated) | 32 | 8
COc1ccc(/C=C(/Sc2n[nH]c(C)n2)C(=O)O)cc1OC | 10 | 10
Cc1cccc(OCC(O)CN2CC3(C)CC2CC(C)(C)C3)c1 (configuration not stated) | -8 | -8
Cc1cc(-n2c(C)cc(CNC(C)c3cccs3)c2C)no1 (configuration not stated) | -16 | -12
Cc1ccccc1C(=O)NNC1=NCCC1 | 10 | 0
CN1CCN(CCSc2ccc(Cl)cc2)CC1 | 6 | 3
Cn1cccc1C(=O)OCC(=O)C12CC3CC(CC(C3)C1)C2 | 14 | 10
O=C(OCCCCN1C(=O)c2ccccc2C1=O)c1ccc(Br)o1 | 8 | 6
CC/C(=N\NC(=O)c1cccnc1)c1cc(F)ccc1O | 42 | -22
COCC(C)n1c(C)cc(C(=O)COC(=O)c2c(OC)cccc2OC)c1C (configuration not stated) | 6 | -3
COC1=C(OC)C(=O)C(CCCCCCCCCCO)=C(C)C1=O | 2 | 10
CC(C)CCC(=O)Nc1ccc(S(=O)(=O)N2C(C)CCCC2C)cc1 (configuration not stated) | 8 | 0
CC(=O)NCc1ccc(S(=O)(=O)NC2CCN(Cc3ccccc3)CC2)cc1 | -7 | -8
Cc1cccc(OCc2nnc(SC(C)C(=O)c3c(C)[nH]c4ccccc34)o2)c1 (configuration not stated) | 10 | 7
CC(OC(=O)CSc1nnc(-c2ccccc2)n1-c1ccccc1)C(=O)Nc1ccccc1C#N (configuration not stated) | 24 | 14
CCn1c(C)nc2cc(C(=O)N/N=C/c3ccccc3)ccc21 | 21 | 5
O=C(COc1ccc(Cl)c2cccnc12)c1ccc2c(c1)OCCO2 | 10 | -4
CC(C)CN(CC(C)C)Cn1nc(C2COc3ccccc3O2)oc1=S (configuration not stated) | 28 | 4
N#Cc1ccc(NC(=O)Nc2cccc3ccccc23)cc1 | 10 | 13
CNS(=O)(=O)c1cccc(C(=O)N2CCN(C/C=C/c3ccccc3)CC2)c1 | 4 | 3
CCC(C)(C)NS(=O)(=O)c1ccc(Cl)cc1F | 10 | 0
CCCN(Cc1nnc(-c2ccccc2Cl)o1)C(=O)Cc1coc2cc(C)c(C)cc12 | 5 | 0
CCOc1ccccc1C(=O)N[C@H](C(=O)Nc1nccs1)C(C)C | 8 | -2
CCN(CC)c1cccc(OC(=O)Nc2ccc(Cl)cc2)c1 | 36 | -1
CC1CN(C(=O)C2=NN(c3ccccc3)C(=O)CC2)CC(C)O1 (configuration not stated) | -2 | -8
Cc1ccc(-c2nnn(CC(=O)N3N=C4/C(=C/c5ccco5)CCCC4C3c3ccco3)n2)cc1 (configuration not stated) | 16 | 8
O=C(CSc1ccccc1C(=O)NCC1CCCO1)Nc1ccc2c(c1)OCO2 (configuration not stated) | 6 | 4
CCOC(=O)c1cc(-c2ccc(N3CCOCC3)cc2)nn1-c1ccccc1 | 13 | 8
Cc1cc(C(=O)CSc2n[nH]c(=O)n2C2CC2)c(C)n1-c1ccccc1 | 0 | 5
CCCSc1nc(C2CC2)nc2c1c(=O)n(C)c(=O)n2CCC | 22 | 8
CS(=O)(=O)c1ccc(C(=O)NCc2ccccc2)cc1 | 14 | 0
CCn1c(CN2CCCCC2)nc2cc(S(=O)(=O)N(C)C)ccc21 | 5 | 4
COc1ccc(C2=NNC(=NC3CCCCC3)SC2)cc1 | 28 | 10
CC(C)CN(CC(C)C)C(=O)CSc1nn2c(=O)c(C(C)(C)C)nnc2s1 | 23 | 9
OCCSc1nc(-c2cccnc2)nc2ccccc12 | 14 | 22
CC(/C=C(\C#N)S(=O)(=O)c1ccccc1)c1ccccc1 (configuration not stated) | 19 | 16

2 of the compounds above, with each value named:
CCCSc1nc(C2CC2)nc2c1c(=O)n(C)c(=O)n2CCC
- BmaI1 enzyme: 22
- BmaI1 enzyme counterscreen: 8
CS(=O)(=O)c1ccc(C(=O)NCc2ccccc2)cc1
- BmaI1 enzyme: 14
- BmaI1 enzyme counterscreen: 0

Next section
SMILES | BmaI1 enzyme | BmaI1 enzyme counterscreen
Cc1oc2c3c(ccc2c(=O)c1-c1ccc(F)cc1)OCO3 | 4 | 0
Cc1nn2c(nc(N3CCCC3)c3ccccc32)c1C=C1C(=O)N(C)C(=O)N(C)C1=O | -8 | -4
COC(=O)c1cc(COC(=O)/C=C/c2c(C)nn(-c3ccccc3)c2C)oc1C | -2 | -5
COc1ccc(NC(=O)c2ccc(NC(=O)CN(C)C3CCN(C)CC3)cc2)cc1 | -2 | 2
CC1CCCC(NC(=O)NC(=O)COc2ccccc2C(N)=O)C1C (configuration not stated) | 11 | 8
COc1ccc(CCC(=O)OCN2C(=O)c3ccccc3C2=O)cc1 | 10 | 6
CCn1c(SCC(=O)N2CCNC2=O)nnc1-c1cccs1 | 20 | 10
O=C(OCC(=O)N1CCCC1=O)c1ccc(S(=O)(=O)NCc2ccco2)cc1 | 22 | 12
c1ccc(-n2c(SCc3cn4ccsc4n3)nc3ccccc32)cc1 | 24 | -2
COC(=O)N/N=C/c1c(C)nn(-c2cccc(Cl)c2)c1Cl | 0 | 4
Cn1c(-c2ccco2)n[nH]c1=S | 96 | 80
Cc1ccc2nc(COC(=O)CN3C(=O)C4CC=CCC4C3=O)cc(=O)n2c1 (configuration not stated) | -2 | 0
Oc1ccc(CN2CCc3ccccc3C2)c2cccnc12 | -70 | -72
c1cc2c(cc1CN1CCNCC1)OCCO2 | 4 | 5
Cc1ccc(C(=O)C(C)OC(=O)C2=COCCO2)cc1C (configuration not stated) | 13 | 4
O=C(CCCSc1nc2ccccc2s1)NCc1ccco1 | 4 | 4
O=C(O)/C=C/c1ccsc1 | 24 | -12
CC(C)N=C(Nc1ccnn1C(C)C)c1ccccc1 | 18 | 6
CCOC(=O)Cc1csc(SCC(=O)Nc2cc(C(C)(C)C)nn2-c2ccccc2)n1 | 16 | 18
NS(=O)(=O)c1ccc(CCNC(=O)c2c(Cl)nc3sccn23)cc1 | 10 | 0

One compound at a time (already shown). Values in the order: BmaI1 enzyme, BmaI1 enzyme counterscreen
`Oc1ccc(CN2CCc3ccccc3C2)c2cccnc12` in the list: -70, -72
`CCOC(=O)Cc1csc(SCC(=O)Nc2cc(C(C)(C)C)nn2-c2ccccc2)n1` in the list: 16, 18
`c1cc2c(cc1CN1CCNCC1)OCCO2` in the list: 4, 5
`CC(C)N=C(Nc1ccnn1C(C)C)c1ccccc1` in the list: 18, 6

Next records:
SMILES | BmaI1 enzyme | BmaI1 enzyme counterscreen
O=C(CCNC(=O)c1ccco1)NC1CCCc2ccccc21 (configuration not stated) | 3 | 4
Cc1cccc(NC(=O)[C@@H]2CCCN2C(=O)OC(C)(C)C)c1 | 6 | 7
O=C(NCC1CCCCC1)c1ccc(-n2cnnn2)cc1 | 7 | 6
Cc1sc2ncnc(N3CCC(C(=O)NC4(C)CCS(=O)(=O)C4)CC3)c2c1C (configuration not stated) | 12 | 2
Cc1onc(-c2ccccc2)c1C(=O)NCc1ccccc1 | 7 | 8
CCN1CCC[C@H]1CNC(=O)c1cc(S(N)(=O)=O)ccc1OC | -7 | 4
N#Cc1ccc(OCC(=O)N(C2CCCCC2)C2CCS(=O)(=O)C2)cc1 (configuration not stated) | 7 | -10
Cc1cc(C(=O)COC(=O)C2CCN(S(=O)(=O)c3cccs3)CC2)c(C)n1C | 13 | 10
O=C(Cn1c(=O)cnc2ccccc21)N1CCN(S(=O)(=O)c2ccccc2)CC1 | 0 | -2
COc1cc2c(cc1NC(=O)C(C)Sc1nc3ccccc3n1C)oc1ccccc12 (configuration not stated) | 2 | 2

The last seven records of the section before lead into the next:
SMILES | BmaI1 enzyme | BmaI1 enzyme counterscreen
Cc1sc2ncnc(N3CCC(C(=O)NC4(C)CCS(=O)(=O)C4)CC3)c2c1C (configuration not stated) | 12 | 2
Cc1onc(-c2ccccc2)c1C(=O)NCc1ccccc1 | 7 | 8
CCN1CCC[C@H]1CNC(=O)c1cc(S(N)(=O)=O)ccc1OC | -7 | 4
N#Cc1ccc(OCC(=O)N(C2CCCCC2)C2CCS(=O)(=O)C2)cc1 (configuration not stated) | 7 | -10
Cc1cc(C(=O)COC(=O)C2CCN(S(=O)(=O)c3cccs3)CC2)c(C)n1C | 13 | 10
O=C(Cn1c(=O)cnc2ccccc21)N1CCN(S(=O)(=O)c2ccccc2)CC1 | 0 | -2
COc1cc2c(cc1NC(=O)C(C)Sc1nc3ccccc3n1C)oc1ccccc12 (configuration not stated) | 2 | 2
O=c1c2c3c(sc2ncn1Cc1ccccc1)CCC3 | 14 | 12
NC(=O)c1ccccc1N | 8 | 10
O=C(COC(=O)Cn1[nH]c(=O)c2ccccc2c1=O)Nc1ncc(Cl)cc1Cl | -4 | -6
O=c1c(Br)c(NCc2ccco2)cnn1-c1ccccc1 | 10 | -2
Cc1cc(C(N)=O)c(C)n1CCCn1ccnc1 | -8 | -6
Nn1c(Cc2ccccc2F)nnc1SCC(=O)c1ccc[nH]1 | 10 | 12
COc1ccc(-n2cnnc2SCCC#N)cc1 | -2 | 1
Cc1ccccc1Nc1nc(N)nc(CSc2ccc(S(=O)(=O)N(C)C)cn2)n1 | 22 | 6
COc1ccc(N2CCN(C(=O)COC(=O)Cc3ccccc3)CC2)cc1 | 23 | -10
C#C[C@]1(O)CC[C@H]2[C@@H]3CCC4=CC(=O)CC[C@@H]4[C@H]3CC[C@@]21C | 0 | 0
O=C(CC1CCCC1)Nc1nc2ccccc2s1 | 16 | 2
Cc1cccc(Oc2ccccc2NC(=O)NC(C)(C)C)c1 | 40 | 8
CNCc1cccs1 | 6 | -3
CN(C(=O)COC(=O)c1ccc(S(=O)(=O)N(C)C)cc1)c1ccccc1 | 3 | 4
Cc1csc(=O)n1CC(=O)OCC(=O)NCc1cccs1 | 9 | 2
CCOc1ccc(C(=O)N[C@H](C(=O)NC2CCCCC2)C(C)C)cc1 | -21 | -2
COC(=O)C1=C(C)NC(C)=C(C(=O)OC(C)C)C1c1cccc2nonc12 (configuration not stated) | 0 | -4
CC1(C)C(=O)Nc2ccccc2N1C(=O)COc1ncnc2ccccc12 | 10 | 2
CCn1c(=O)c(CCc2ccccc2)nc2cc(S(=O)(=O)N(C)C)ccc21 | 10 | 9
CCOC(=O)/C=C1\SCC(=O)N1C(C)C(=O)Nc1ccc2c(c1)OCCO2 (configuration not stated) | 8 | 10
O=C(CCN1C(=O)C2CC=CCC2C1=O)OCn1nnc2ccccc2c1=O (configuration not stated) | 8 | -2
Nc1nc(-c2ccccc2)c(N=Nc2cccnc2)s1 | -4 | -18
Cc1cc(C(=O)COC(=O)CC2Sc3ccccc3NC2=O)c(C)n1C (configuration not stated) | 6 | -7
O=C(COn1nnc2ccccc21)N1CCC(Cc2ccccc2)CC1 | 24 | 14
Cc1ccc(OCCNC(=O)c2ccc(C)o2)cc1 | 4 | 6
C/C(Nc1nc(-c2cc(C)n(Cc3ccccc3Cl)c2C)cs1)=C(/C#N)C(N)=O | 58 | 26
N#Cc1ccccc1CSc1nc2ccccc2n1-c1ccccc1 | -1 | 2
Cc1ccc(C)c(-n2c(=O)c3ccccc3n3c(SC(C)C(N)=O)nnc23)c1 (configuration not stated) | 12 | 5
O=C(Nc1ccccc1Cc1ccccc1)c1ccc(Br)o1 | -8 | -12
O=C(CCNC(=O)c1ccc(Br)cc1)Nc1nc2ccccc2[nH]1 | 1 | -2
COC(=O)N1CCN(C(=O)Cc2ccc(Cl)c(Cl)c2)C(CN2CCCC2)C1 (configuration not stated) | 1 | -5
CN(C)S(=O)(=O)c1ccc(NC(=O)CSc2ncccn2)cc1 | 14 | 8
CCCCn1c(N)c(N(CC(C)C)C(=O)COc2ccc(F)cc2)c(=O)[nH]c1=O | -16 | 8
CC(C(=O)N/C(N)=N/c1nc2ccccc2s1)N1C(=O)c2ccccc2C1=O (configuration not stated) | 18 | 14
Cc1nc2ccccc2n1CC(=O)OC(C)C(=O)NC1CCCC(C)C1C (configuration not stated) | 8 | 3
CC(=O)NCCC(=O)N1CCN(S(=O)(=O)c2ccc(C(C)C)cc2)CC1 | 10 | 5
O=C(Cc1coc2cc3c(cc12)CCC3)NCCNc1ncc(C(F)(F)F)cc1Cl | 20 | 12
COC(=O)[C@@H]1CC(O)CN1C(=O)C12CC3CC(CC(C3)C1)C2 (some centres not stated) | 8 | -2

Screening data: PubChem BioAssay, ICCB-Longwood Screening Facility, Harvard Medical School
